Assay outcomes: PubChem, several laboratories
ugtP null kill: growth inhibition of S. aureus ugtP deletion strain; growth inhibition, % (concentration not given with the values); actives 0.54% (n = 330,000); AID 1259309; S. aureus RN4220 ugtP deletion, OD600 growth, 16 h; some inactives read as strong as hits;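 active = z-score under -3 and OD600 up to 0.15 on both plates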;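 note: plate controls were untreated wells for no effect and antibiotic for full effect; wells of about 80 µL received 100 nL stock; the first replicate is given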
Mtb hypoxia rep: Mtb hypoxia fluorescent reporter inhibition. M. tuberculosis hypoxia-regulated fluorescent reporter, fluorescence. fluorescence inhibition, % (concentration not given with the values). actives 0.1% (n = 300,000);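 active = 35 to 45% if threefold the growth effect, above 45% if 1.5-fold the growth effect; inactive = the rest, general growth blockers included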;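 note: wells of about 50 µL received 100 nL stock; 0% = vehicle wells and 100% = reference inhibitor wells; whole bacteria with a GFP reporter of the hypoxia response; strong numbers were not always called active; many hits fall short of the cut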
RN4220 kill: S. aureus RN4220 growth inhibition. OD600, 16 h. inhibition, % (concentration not given with the values). actives 0.33% (n = 330,000). AID 1259311;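 active = z-score of -3 or lower and OD600 up to 0.18 on both plates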;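 note: plate controls were untreated cells for no effect and reference antibiotic for full effect; stock transfer was 100 nL into about 80 µL; one replicate is shown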
Bead autofluor: flagged as autofluorescent in microsphere protease counterscreen; AID 624483; fluorescence intensity (no concentration beside the values); compound autofluorescence counterscreen, microsphere flow cytometry; active compounds read high; actives 3.1% (n = 360,000);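 active = at least 3 SD above the mean of all compounds, about 16000 in these data; inconclusive = too few beads counted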;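 note: 100 nL of 1 mM stock went into each well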
BJeLR lethal: kills HRASV12-expressing BJeLR cells | BJeLR (HRASV12) viability, CellTiter-Glo ATP luminescence, 48 h; reference of the scale not given here | inhibition, % (test concentration not listed) | actives 0.17% (n = 300,000);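 active = replicate mean above 50%; inconclusive = above 50% but judged a plate artefact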;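 note: 50 nL library stock added to about 25 µL; numbers are from one replicate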
PrP UTR inh: inhibition of PrP 5' UTR reporter expression; inhibition, % (no concentration beside the values); actives 0.35% (n = 340,000); cell-based PrP 5' UTR mRNA reporter, plate reader; AID 488862;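 active = every replicate at 50% or more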;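 note: 0 = median of the neutral control wells; tested in H4 reporter cells; numbers are from one replicate; inactives centre near -14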
Mtb hypoxia rep growth: also measured in Mtb hypoxia rep; calls as there; growth inhibition, %; measured here: M. tuberculosis growth (absorbance);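 0% = vehicle and 100% = reference antibiotic; read after six days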
* marks the source's active call; other numbers are inactive results; ? = inconclusive; · = not tested or not shown.

canonical_smiles,ugtP null kill,Mtb hypoxia rep,Mtb hypoxia rep growth,RN4220 kill,Bead autofluor,BJeLR lethal,PrP UTR inh
CCn1c(COc2c(C)cccc2C)nnc1SCC(=O)N1CCN(c2ccccc2)CC1,2,8,4,8.5,3062,-6,3
CS(=O)(=O)c1ccc(Cl)c(NC(=O)COC(=O)c2c(Cl)cccc2Cl)c1,8,14,8,-1.5,4231,5,-12
O=[N+]([O-])c1ccc(NN=Cc2c[nH]c3ccccc23)c(S(=O)(=O)Nc2ccc(Cl)cc2)c1,99*,20,10,81,·,·,·
Cc1cccc(NC(=O)CNC(=O)c2ccco2)n1,3,3,0,2.3,?,0,-21
COC(=O)c1cc(CNC(=O)c2ccc(S(=O)(=O)N(C)c3ccccc3)cc2)ccc1OC,7,-6,-1,-1.1,3923,·,-9
Nc1ccc(S(=O)(=O)NCc2ccccn2)cc1,9,7,4,5.3,3567,-3,-23
CCCCSc1nc2c(c(=O)[nH]1)CCC2,0,5,4,3.3,5641,4,-1
C/C(=N\NC(=O)c1ccc(Br)cc1)c1ccccc1,·,·,·,·,2196,-1,-88
O=C(Oc1ccc(N2C(=O)CCC2=O)cc1)c1ccccc1,5,·,·,-2.7,5448,3,-19
O=C(O)c1ccc(Cl)c(S(=O)(=O)NC(Cc2ccccc2)C(=O)O)c1 (configuration not stated),1,16,10,-0.9,4283,-7,-14
COc1ccc2[nH]c3c(c2c1)CCn1c-3nc2ccccc2c1=O,-6,·,·,4.1,3883,·,-71
CCOC(=O)CCCNC(=O)COC(=O)/C=C/c1ccc2c(c1)OCO2,5,10,4,3.7,4001,2,-29
CC12CCCCC1=NC(c1ccc(Br)cc1)N2O (configuration not stated),2,2,1,3.8,9217,-5,-16
CC(=O)NN1C(=O)c2ccccc2NC1c1ccoc1 (configuration not stated),1,-2,7,-3.8,4366,0,-17
CC1c2nc3ccccc3n2C(CC(=O)NCc2ccccn2)C(=O)N1Cc1ccccc1 (configuration not stated),8,6,4,-1.6,10899,7,-29
Cc1nn(Cc2ccc(Cl)cc2)c(=O)n1N(C)c1ncc(C(F)(F)F)cc1Cl,-1,·,·,5.9,4712,-1,-25
CCOC(=O)c1ccc(NC(=O)CCN2C(=O)C3CC=CCC3C2=O)cc1 (configuration not stated),-3,-6,0,1.3,5394,·,-2
Cc1cccc(NC(=O)CSCC(=O)Nc2cccc(S(=O)(=O)N3CCCCCC3)c2)c1,-6,8,5,12,·,8,-2
Cc1cccc(C2c3[nH]c4ccccc4c3CCN2C(=O)c2cc(CC(C)C)nc(C)n2)n1 (configuration not stated),4,9,6,5.7,4105,-8,-1
COc1ccc2nc(C3CCCCC3)c3c(c2c1)CCC3,9,12,12,-5.1,4203,4,3
N/C(=N\OC(=O)COc1ccccc1Cl)c1ccc(Cl)cc1,7,·,·,-2.4,4032,0,-26
CC(Sc1nnc(COc2ccc(Cl)cc2)n1Cc1ccccc1)C(=O)O (configuration not stated),-64,9,1,5.5,3847,1,-15
Cc1cc(NC(=O)CCCN2C(=O)c3cccnc3C2=O)no1,12,3,4,2.7,3764,-4,-5
COc1cccc(OC)c1OCCCCN1CCCCC1,-1,-7,3,5.0,4329,-12,-42
O=C1COc2ccc(S(=O)(=O)N3CCN(c4ccccc4)CC3)cc2N1,4,-2,5,0.3,5636,11,-12
CCCNC(=O)c1c(CSc2ccc(Cl)cc2)noc1C(=O)NCc1ccccc1,-8,2,-2,-4.1,3831,5,-23
O=C(NC(=S)NC1CCSC1=O)c1ccccc1 (configuration not stated),11,6,-6,7.0,2622,·,-11
COC(CNC(=O)c1ccc2c(c1)ncn2-c1cccc(C)c1)OC,14,-1,2,0.5,3827,2,-14
COc1cccc(/C=C/c2nc(C#N)c(NCC(C)C)o2)c1,-8,-3,2,-1.8,·,-3,-14
Cc1ccc(S(=O)(=O)NN=Cc2c[nH]c3ccccc23)cc1,5,-1,6,3.9,·,·,·
Cc1ccc2c(CC(=O)Nc3c(C)n(C)n(-c4ccccc4)c3=O)coc2c1,6,10,11,3.7,3430,1,-9
C#CCOCCOCCOCCNc1nc(N2CCN(C(=O)CCCCCCCCCCNC(=O)[C@H](CCCCN)n3cc(CCCC(=O)O)nn3)CC2)nc(N2CCN(C(=O)CCCCCCCCCCNC(=O)[C@H](CCCCN)n3cc(CCCC(=O)O)nn3)CC2)n1,·,·,·,·,3105,-9,-24

2 entries from above, with values under each structure.
Values run as follows: ugtP null kill | Mtb hypoxia rep | Mtb hypoxia rep growth | RN4220 kill | Bead autofluor | BJeLR lethal | PrP UTR inh
- COc1cccc(/C=C/c2nc(C#N)c(NCC(C)C)o2)c1
  -8 | -3 | 2 | -1.8 | · | -3 | -14
- Cc1ccc(S(=O)(=O)NN=Cc2c[nH]c3ccccc23)cc1
  5 | -1 | 6 | 3.9 | · | · | ·

Fetched by structure from the entries so far (2):
canonical_smiles,ugtP null kill,Mtb hypoxia rep,Mtb hypoxia rep growth,RN4220 kill,Bead autofluor,BJeLR lethal,PrP UTR inh
O=C1COc2ccc(S(=O)(=O)N3CCN(c4ccccc4)CC3)cc2N1,4,-2,5,0.3,5636,11,-12
C#CCOCCOCCOCCNc1nc(N2CCN(C(=O)CCCCCCCCCCNC(=O)[C@H](CCCCN)n3cc(CCCC(=O)O)nn3)CC2)nc(N2CCN(C(=O)CCCCCCCCCCNC(=O)[C@H](CCCCN)n3cc(CCCC(=O)O)nn3)CC2)n1,·,·,·,·,3105,-9,-24

(listing goes on)
canonical_smiles,ugtP null kill,Mtb hypoxia rep,Mtb hypoxia rep growth,RN4220 kill,Bead autofluor,BJeLR lethal,PrP UTR inh
CCCCn1c(N)c(N(Cc2ccccc2OC)C(=O)COc2cc(C)ccc2Cl)c(=O)[nH]c1=O,1,-8,-7,1.5,?,-5,-27
CN(C(=S)NC(=O)C12CC3CC(CC(C3)C1)C2)c1ccc(O)cc1,0,11,3,2.2,3352,·,-35
Cc1ccc2cccc(SCC(=O)NCC#N)c2n1,-4,-5,-9,-7.1,6023,0,-14
CCc1ccc(NC(=O)C(=O)N/N=C(\C)CC(=O)Nc2ccccn2)cc1,·,·,·,·,9214,9,-30
COc1ccc(/C=N\NC(=O)c2ccccc2[N+](=O)[O-])cc1COc1c(F)c(F)c(F)c(F)c1F,·,·,·,·,5990,0,-13
CCC1CCCCN1CCCNC(=O)Cn1cnc2sc(C)c(S(=O)(=O)N3CCC(C)CC3)c2c1=O (configuration not stated),9,-11,-6,1.6,4128,-5,-11
CCCCC1CCCOC(C(=O)NCCNCCO)(C(F)(F)F)C1 (configuration not stated),-2,5,-1,-11,4045,4,-21
CCOC(=O)c1nnn(-c2nonc2N)c1CNc1ccc(C)c(Br)c1,-7,-5,8,5.6,2845,1,-7
CCOC(=O)C1C2COc3ccccc3C2N2C(=O)c3cc(F)c(F)cc3NC(=O)[C@@]12C (some centres not stated),2,14,6,3.3,·,·,·
O=C(CSc1ccccn1)N/N=C/C=C/c1ccccc1,·,·,·,·,4750,2,-45
Cc1cc(C)cc(NC(=O)CCn2c(=O)c3cccn3c3ccccc32)c1,-4,4,5,1.0,5385,-4,-23
CCOC(=O)/C(Sc1nc(-c2ccccc2)cc(-c2ccccc2)c1C#N)=C(\C)O,0,-4,7,-4.8,4590,3,-7
CCc1cccc(NC(=O)Cn2cc(C=O)c3ccccc32)c1,3,6,7,0.3,4112,11,-19
CCN(C(=O)CSc1nc2ccccc2n1C)C1CCS(=O)(=O)C1 (configuration not stated),-3,5,2,2.1,8008,·,-7
COc1ccc(/C=C\C(=O)NCC(=O)NN=Cc2cccc(OC)c2O)cc1,-5,-1,3,-2.9,·,·,·
COc1ccccc1N(CC(=O)NC(C)(C)C)C(=O)CCC(=O)Nc1ccccn1,10,4,9,6.8,3847,-9,-7
CCOc1ccc(C(=O)NC(=S)Nc2ccccc2N2CCC(C)CC2)cc1[N+](=O)[O-],5,-7,6,9.7,?,-4,2
O=C(CSCc1ccc(C(=O)O)cc1)Nc1ccccc1,2,5,-2,2.2,4047,-2,-24
O=C(C[C@@H]1C/C=C/CC[C@H](Cc2ccc(F)cc2)C(=O)OCCNC1=O)N[C@H](CO)Cc1ccccc1,7,-6,2,0.8,4083,·,-35
CC(=O)c1ccc(OCC(O)CN2C(C)(C)CC(O)CC2(C)C)cc1 (configuration not stated),-2,1,4,2.2,5977,1,-10
CC(=O)Nc1cccc(NC=C(C#N)C#N)c1,6,8,6,0.4,3951,6,-26
COC(=O)c1cc(NS(=O)(=O)c2ccc(N3CCOCC3)c([N+](=O)[O-])c2)cc(C(=O)OC)c1,6,6,1,3.9,2497,2,-16
COc1ccc(N(C(C)=O)c2nc(C)cc(C)c2C#N)c(OC)c1,1,-4,0,5.2,1985,-2,-2
c1ccc(-c2nccnc2-c2ccccc2)cc1,17,10,1,2.7,4014,-4,-11
Cc1ccc(S(=O)(=O)n2cc(-c3ccccc3)c(N)n2)cc1,7,2,13,0.4,10770,·,9
CC(/C=C/c1ccco1)=NNC(=O)c1cccnc1,-3,-4,3,4.3,·,·,·
Cc1ccc(C)c(-c2cc(C(=O)NNC(=S)NCC(C)C)c3ccccc3n2)c1,20,9,0,17,2539,-1,-20
CCOc1ccc(C(=O)NCC(=O)NNC(=O)c2ccco2)cc1OCC,-2,6,6,-2.0,3443,·,-9
COc1cccc(-n2c(SCC(=O)N3CCCCC3)nc3c([nH]c4ccccc43)c2=O)c1,9,5,1,5.4,5597,3,-2
Cc1c(NC(=O)C(C#N)=C2CCCCC2)c(=O)n(-c2ccccc2)n1C,2,·,·,-2.6,4545,-9,-23
O=C(Nc1cccc(S(=O)(=O)N2CCOCC2)c1)C1COc2ccccc2O1 (configuration not stated),-1,-2,3,2.1,7303,·,-15
c1ccc(OCc2nc(-c3cccs3)no2)cc1,7,3,5,2.9,19681*,-11,-66
COc1ccccc1CNC(=O)CCS(=O)(=O)c1ccc(Cl)cc1,0,7,0,4.1,5902,7,-36
COc1ccc(OC)c(S(=O)(=O)NC2CCN(Cc3ccccc3)CC2)c1,9,9,8,1.1,13530,2,-12
O=C(CSc1nnc(-c2cccs2)n1-c1ccccc1)c1ccc2c(c1)OCCO2,-3,·,·,2.0,4319,2,-19
CC1CCC2(CC1)OCC1(CCC3(COC4(CCC(C)CC4)OC3)C1=O)CO2 (configuration not stated),-8,5,12,-1.5,3619,0,-16
COc1cc(OC)c(-n2c(C)cc(C=O)c2C)cc1Cl,8,6,5,1.4,9589,3,-31
COc1cc(C(=O)NCc2ccccc2)cc(Br)c1OC,-1,1,17,0.6,2513,-1,-38
CCC(C)c1c(N)n(S(=O)(=O)c2ccc(C)cc2)oc1=O (configuration not stated),1,17,6,4.9,3470,·,-18
CCC1Oc2ccc(C)cc2N(CC(=O)NCCCN2CCCCC2CC)C1=O (configuration not stated),-2,2,14,1.6,24712*,1,-6
CCOC(=O)c1sc2ccccc2c1NC(=O)c1coc2ccccc2c1=O,53,5,4,-7.7,2554,-11,-16
C/C(=N/NC(=O)CNC(=O)c1ccncc1)c1ccco1,·,·,·,·,3742,-4,-12

Rows are unselected; about 4.1% have a hit in one of these screens.
